Bioassay records from PubChem BioAssay.
AID504770: growth inhibition of E. coli YBA685, primary screen, V. cholerae RctB inhibitors; z-score (concentration not given with the values); 130,000 compounds, 0.27% hits; E. coli YBA685 rctB-dependent plasmid, OD600 growth, 3 h; active compounds read low;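 active means z-score under -2 on both plates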;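 further: wells of about 30 µL received 100 nL stock; score is relative to mean and SD of the test wells; the first replicate is given; strong numbers were not always called active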
CapD inh: Bacillus anthracis CapD inhibitors, primary screen, biochemical, fluorescence intensity. CapD gamma-glutamyltranspeptidase (Bacillus anthracis Ames Ancestor). purified CapD enzyme, fluorescence intensity read-out; active compounds read low; some hits fall short of the stated cut. z-score (test concentration not listed). 140,000 compounds, 0.23% hits;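 active means z-score under -4 in either of two replicates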;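 further: stock transfer was 100 nL into about 40 µL; score is relative to mean and spread of the plate; one replicate is shown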
Active calls of the source: *; x = not tested or not shown. The order is random. Share with any hit: about 0.37%.

Below each compound – AID504770 | CapD inh
1) CCn1c(=NC(=O)c2ccc(S(=O)(=O)N(C)C)cc2)sc2cc(Cl)ccc21
 : 0.2 | 0.335
2) O=C(NCn1c(=S)n(CNC(=O)c2cccnc2)c2ccccc21)c1cccnc1
 : -0.75 | x
3) CC(=O)c1coc2ccccc2c1=O
 : x | 0.22
4) COc1ccc(C2=NOC(C(=O)N(C)C3CCCCC3)C2)cc1 (stereo not drawn)
 : -1.95 | 0.17
5) N#C/C(=N\Nc1ccc(Cl)c(Cl)c1)C(=O)C1CC1
 : x | -1.47
6) CCCC12CCC(C(=O)O)(CC1)CC2
 : 0.1 | x
7) Cc1ccc(-c2n[nH]c(=S)n2C)cc1
 : 1.65 | 0.32
8) O=C1CN(C(=O)/C=C/c2ccc(S(=O)(=O)NCc3ccco3)cc2)c2ccccc2N1
 : -0.5 | x
9) Cc1ccc(C)c(NC(=S)NC2CC(C)CC(C)(C)C2)c1 (stereo not drawn)
 : 0.3 | 1.3
10) CN(C)CCCNCc1ccccc1F
 : -0.65 | x
11) CN(Cc1ccccc1)C(=O)Cn1nc(-c2ccc(Cl)cc2)ccc1=O
 : -0.5 | -0.645
12) CC(C)c1ccc([C@H]2[C@@H]3CCCC=C3C(C#N)=C(N)C2(C#N)C#N)cc1
 : x | 2.4
13) N#CSC(C#N)Cc1ccccc1 (stereo not drawn)
 : -6.45* | -0.295
14) O=C(CSc1ncnc2sc3c(c12)CCCC3)N1CCCCC1
 : 1.9 | 0.5
15) CCOC(=O)c1sc2nccc(Nc3ccccc3)c2c1N
 : -0.4 | 23.5
16) CC(C)C(OC(=O)c1ccccc1)c1nccc2ccccc12 (stereo not drawn)
 : -0.55 | -0.01
17) COc1cc(CNCc2nnc3ccccn23)cc(I)c1O
 : 0.3 | x
18) Cc1cc(NC(=O)c2cc(-c3ccc4c(c3)OCO4)on2)n(-c2ccccc2)n1
 : -2.35 | -0.19
19) CC(=O)Nc1ccc(C(=O)OCC(=O)N2CCc3ccccc32)cc1
 : 1.45 | -0.245
20) Clc1ccc(C2Nc3cccc4cccc(c34)N2)cc1
 : x | 14
21) CC(C)(C)Sc1cccc2ccccc12
 : -0.45 | 0.14
22) O=C(CSc1nc2ccccc2o1)Nc1ccccn1
 : -1.05 | 2.49
23) Cn1cc(S(=O)(=O)N2CCCC2)cc1C(=O)N1CCN(C2CCCCC2)CC1
 : -0.3 | 0.415
24) CNC1CCS(=O)(=O)C1 (stereo not drawn)
 : 0.25 | 0.005
25) COc1cc(SC)ccc1C(=O)Nc1cccnc1
 : -0.9 | x
26) COC(=O)c1nnn(-c2nonc2N)c1CSC#N
 : -0.05 | -0.48
27) Cc1cccc(NC(=O)c2ccccc2)c1
 : x | 0.48
28) COc1ccc(C(=O)Nc2ccc(NC(=O)c3ccco3)cc2)cc1OC
 : 0.65 | x
29) CC(C)(C)c1ccc(/C=C/C(=O)NCCCn2ccnc2)cc1
 : -0.55 | 13
30) Cc1oc2ccc(OCc3cccc(F)c3)cc2c1C(=O)O
 : -0.45 | -0.4
31) CCN(CC)C(=O)COc1ccc2c3c(c(=O)oc2c1C)CCCC3
 : x | 25.3
32) O=C(O)C1c2ccccc2C(=O)N(Cc2ccc3c(c2)OCO3)C1c1cccnc1 (stereo not drawn)
 : x | -0.705
33) CC(=NCC1CCNCC1)C1=C(O)CC(C)(C)CC1=O
 : -1 | 1.29
34) COCCN1C(=O)C=CC1=O
 : -3.55* | 0.27
35) COc1ccc(Br)cc1C1C(C(=O)OCC2CCCO2)=C(C)NC2=C1C(=O)CC(C)(C)C2 (stereo not drawn)
 : x | 13.4
36) CC(NC(=O)CSc1ccccc1C(=O)O)C1CC2CCC1C2 (stereo not drawn)
 : 0.9 | 0.485
37) O=C(O)CN(CC(=O)O)c1ccc(Cl)cc1
 : 1.8 | 1.11
38) COC(=O)c1sccc1NC(=O)C(F)(F)F
 : x | 0.31
39) COc1cccc(C2NC(C(=O)O)Cc3c2[nH]c2ccccc32)c1 (stereo not drawn)
 : 0.3 | x
40) COc1ccc(C)cc1CC(=O)O
 : -0.2 | x
41) Cc1cc(C)c(S(=O)(=O)N2CCC(C(N)=O)CC2)c(C)c1
 : -0.2 | -0.575
42) CC(NC(=O)CSc1ncnc2ccccc12)C1CC2CCC1C2 (stereo not drawn)
 : -1 | -0.02
43) OC(CNCCNc1nccc(C(F)(F)F)n1)c1ccccc1 (stereo not drawn)
 : 1 | 0.615
44) COC(=O)c1ccccc1-n1cccc1C(=O)OC
 : x | -0.855
45) COc1ccc(N(C(C)=O)S(=O)(=O)c2ccc(C)cc2)cc1
 : -0.4 | -3.44
46) Cc1cc(C)c(C2N(Cc3ccccc3)CCN2Cc2ccccc2)c(C)c1
 : x | -0.265
47) CCC1CCCCN1Cc1c(O)cc(C)c2c1oc(=O)c1ccccc12 (stereo not drawn)
 : -0.75 | 1.28
48) Cn1nc(C(F)(F)F)c(C#N)c1S(=O)(=O)c1ccc(Cl)cc1
 : x | -0.105
49) NC(=O)C1CCN(C(=O)c2ccc3c(c2)nc(SCc2ccncc2)n2c4ccccc4nc32)CC1
 : x | 2.47
50) COc1ccc(/C=C2\N=C(c3cncc(Br)c3)OC2=O)c(OC)c1OC
 : x | 0.895
51) O=C(NCc1ccc2c(c1)OCO2)c1ccccc1Cl
 : 0.15 | x
52) O=C1OC(c2ccc(O)cc2)(c2ccc(O)cc2)c2ccccc21
 : 0.35 | 0.83
53) O=C1C2C(C(=O)N1c1ccccc1)N1CCCN1C2c1ccccc1 (stereo not drawn)
 : -0.6 | x
54) COc1ccc(OC)c(C(c2c(O)[nH]c(=O)[nH]c2=O)N(Cc2ccccc2)C(C)C)c1 (stereo not drawn)
 : 2.9 | 0.805
55) COc1ccc(Br)c(OC)c1C(=O)O
 : x | 0.18
56) COc1cc(C(=O)O)cc2c1OC(C)C2 (stereo not drawn)
 : -0.55 | x
57) COC(=O)c1sccc1NC(=O)c1c(F)cccc1F
 : x | -0.035
58) O=C(CNCC1CCCO1)N1CCCC1 (stereo not drawn)
 : -0.25 | x
59) CCOC(=O)c1sc(=S)sc1SCc1cccc(C(F)(F)F)c1
 : x | -0.165
60) CCc1ccc2nc3sc(C(N)=O)c(N)c3cc2c1
 : 2.85 | x

Next part
Below each compound – AID504770 | CapD inh
61) CCc1ccc(NC(=O)c2ccc(N3CCCS3(=O)=O)cc2)cc1
 : 2.05 | 1.3
62) CCCC12CN3CC(CCC)(CN(C1)C3c1ccccc1O)C2=O (stereo not drawn)
 : 0.75 | -0.105
63) CCN(CC)c1ncnc2sccc12
 : -0.05 | 0.295
64) c1ccc(-c2nc(-c3noc(-c4ccccc4)n3)no2)cc1
 : x | 0.77
65) CCOC(=O)c1ccc(-n2c(N)c(C(=O)NCC3CCCO3)sc2=S)cc1 (stereo not drawn)
 : -0.6 | -2.12
66) O=C(O)c1ccc(CSc2ccc(C(F)(F)F)cn2)o1
 : x | 0.27
67) CC[N+](C)(CC)CCC[n+]1c(-c2ccccc2)c2cc(N)ccc2c2ccc(N)cc21
 : x | 0.06
68) CCOC(=O)C1=C(O)/C(=C/c2ccc([N+](=O)[O-])cc2)SC1=Nc1ccc([N+](=O)[O-])cc1
 : x | 0.57
69) Cc1ccc(O)c(CN2CCCCC2)c1
 : x | 5.71
70) Cc1ccc(CNc2oc(C)nc2C#N)cc1
 : -0.95 | 0
71) COc1cc(C(N)=O)ccn1
 : -0.55 | 0.215
72) CCC(Sc1nc2cc(OC)c(OC)cc2c2nc(CCn3nc(C)cc3C)nn12)C(=O)NCc1ccco1 (stereo not drawn)
 : -0.3 | -0.03
73) COc1ccc2oc(C(=O)NCCC(C)C)c(C)c2c1
 : 1.05 | x
74) CCN(CCC#N)c1ccc(/C=C(\C#N)C(=O)NC(C)C)c(C)c1
 : 0.8 | x
75) O=C(CCCN1C(=O)/C(=C\c2cccs2)SC1=S)Nc1ccccc1Br
 : x | 0.145
76) Clc1cccc(-c2cnc(CSc3nnc(C4CC4)n3-c3ccccc3)o2)c1
 : -1.6 | x
77) CC1Sc2cc(-c3ccc(Br)cc3)cn2C1=O (stereo not drawn)
 : 0.55 | x
78) CCN(CC1COc2ccccc2O1)S(=O)(=O)c1cccs1 (stereo not drawn)
 : 0 | x
79) CCOc1ccc(Br)cc1C(=O)Nc1c[nH]c(=O)[nH]c1=O
 : 0.4 | x
80) Cc1nc(CS(=O)(=O)c2ccc(Cl)cc2)sc1C(=O)O
 : -0.1 | 0.63
81) CC(N)=NCCCn1ccnc1
 : x | -0.25
82) CCCCN1C(=O)CCC(C(=O)O)C1c1ccccc1 (stereo not drawn)
 : 0.3 | 0.33
83) Cc1cc(=O)c2cc(F)cc(F)c2[nH]1
 : x | 0.94
84) O=C(Nc1ccccc1)NC1CS(=O)(=O)CC1O (stereo not drawn)
 : 1.4 | -0.095
85) Cc1ccc(C(=O)C(/C=N/O)=N/Nc2cc(Cl)cc(Cl)c2)cc1
 : x | -0.29
86) O=C(COc1ccccc1F)Nc1cc(C(F)(F)F)ccc1Cl
 : 1.4 | 0.69
87) CC1c2cccn2CCN1S(=O)(=O)c1ccccc1 (stereo not drawn)
 : -0.4 | x
88) CCN(Cc1cccc(Cl)c1Cl)C(=O)c1cnc(OC)cc1C(F)(F)F
 : -0.1 | -0.16
89) Cc1ccc(S(=O)(=O)N2CCN(C3c4ccccc4-c4ccccc43)CC2)cc1[N+](=O)[O-]
 : x | -0.135
90) N#CSc1ccc(N2CCCCC2)cc1
 : -0.05 | x
91) Cc1noc(C)c1S(=O)(=O)N1c2ccccc2CC1C (stereo not drawn)
 : -1.4 | 0.02
92) CC(=O)OCC(=O)[C@@]1(O)[C@H](OC(C)=O)CC2C3CCC4=CC(=O)C=C[C@]4(C)[C@@]3(F)[C@@H](O)C[C@@]21C (stereo partly drawn)
 : -0.1 | -0.2
93) COC(=O)CN1C(c2ccccc2)=Nc2ccc(C)cc2C1c1ccccc1 (stereo not drawn)
 : -1.2 | -0.575
94) CC(C(=O)Nc1ccc(F)cc1)n1nnc2ccccc2c1=O (stereo not drawn)
 : -0.5 | -0.46
95) CC(C)NC(=O)CN1CCN(S(=O)(=O)c2ccc(Cl)cc2)CC1
 : x | -0.035
96) CN(C)/C=C/C(=O)c1cccc(Oc2ncc(C(F)(F)F)cc2Cl)c1
 : x | -2.3
97) OC(C#CCN1CCCCC1)c1ccccc1 (stereo not drawn)
 : -0.65 | 0.085
98) CCOC(=O)c1c(CN2CCN(c3ccccc3C)CC2)oc2cc(Br)c(OC)cc12
 : x | -0.05
99) CC1=C(C(=O)OC(C)C)C(c2cn(-c3ccccc3)nc2-c2ccc(OC(C)C)cc2)NC(=O)N1 (stereo not drawn)
 : 0.55 | 0.19
100) COc1ccc(C2CC(c3ccc4ccccc4c3)=NN2C)cc1 (stereo not drawn)
 : -0.05 | 84.2
101) Cc1ccccc1CS/C(Nc1ccccc1C)=C(\C#N)C(=O)NCc1cccs1
 : x | -0.11
102) O=C(CCCN1C(=O)C2C3C=CC(C3)C2C1=O)N1CCN(c2ccccc2F)CC1 (stereo not drawn)
 : -0.55 | 6.8
103) COC(=O)CCN1C(=O)/C(=C/c2ccccc2)SC1=S
 : -1.05 | -0.275
104) COc1ccccc1N/C=C(\C#N)S(=O)(=O)c1ccc(Cl)cc1
 : -1.2 | -0.805
105) NS(=O)(=O)c1ccc(NC(=O)CS)cc1
 : -1.45 | -1.34
106) Cc1ccc(-c2noc(CCC(=O)NCCCN3CCN(c4ccc(F)cc4)CC3)n2)cc1
 : -0.7 | 3.12
107) C=C(C)Cn1c(CCNC(=O)c2cc(OC)c(OC)c(OC)c2)nc2ccccc21
 : -0.5 | 0.8
108) COCCN(C1CCN(C(=O)c2ccc(C(F)(F)F)cc2)CC1)S(=O)(=O)c1ccc(Cl)cc1
 : x | -0.7
109) O=C(O)/C(=C\c1ccc(-c2ccc(F)cc2)o1)c1ccccc1
 : 0.55 | x
110) Cc1ccc(NCc2c[nH]c3ccccc23)cc1
 : -0.25 | 0.07
111) COc1ccc(CN2CCCCC2COC(=O)N2CCN(c3cc(C(F)(F)F)nc4cc(C(C)(C)C)nn34)CC2)cc1F (stereo not drawn)
 : x | 71.5
112) O=C1CCCC2=C1C(c1cccc(Cl)c1)Nc1ccc3ncccc3c12 (stereo not drawn)
 : x | -0.595
113) C=CCn1c(SCC(=O)NCCCO)nc2sc3c(c2c1=O)CCC3
 : x | -0.22
114) Cc1ccccc1NC(=O)c1ccc2c(SCC(=O)O)c3c(nc2c1)CCC3
 : 0.05 | -0.045
115) Cc1ccc(Cn2c(=O)c3ccccc3n3c(SCC#N)nnc23)cc1
 : 0.3 | x
116) Cc1ccc(CN2CCN(CC(=O)N3CCC4(CC3)OCCO4)C2=O)cc1
 : 1.5 | 0.315
117) O=C(Nc1ccc(S(=O)(=O)N(C2CC2)C2CCN(Cc3ccccc3)CC2)cc1)C(c1ccccc1)c1ccccc1
 : x | -0.31
118) COC(=O)C1=C(C)N(c2ccc(C(C)C)cc2)C(=O)C1
 : -0.7 | -0.095
119) Cc1c(-c2csc(-c3ccc(Cl)cc3)n2)sc2ccccc12
 : x | 0.505
120) Cc1cc(N2CCN(c3ccccc3)CC2)nc(NCc2ccccc2)n1
 : x | 0.33
121) CC(/C=N/N1C(=O)c2ccccc2C1=O)c1ccccc1 (stereo not drawn)
 : -0.05 | 1.12
122) c1ccc(CNCc2ccc3c(c2)OCCO3)cc1
 : -0.25 | x
123) CCOC(=O)c1sc2ncn(/N=C/c3cccnc3)c(=O)c2c1C
 : -0.55 | -0.095
